rRNA inh HTS – inhibits bacterial ribosomal RNA function over humanized ribosomes; GFP signal change (wild-type ribosome), % (concentration not given with the values); AID 720706; E. coli WT GFP vs humanized-ribosome RFP mutants, fluorescence, 24 h; active compounds read low; DMSO median 0, no signal -100; hit rate 1.6% among 350,000;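 active means significant combined selectivity score with lowered wild-type GFP, culture density cut under 30%, mutant RFP and density less affected; inactive means any of these conditions unmet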; further: one replicate is shown; some compounds called inactive have numbers as strong as hits
rRNA inh HTS OD600 – recorded beside rRNA inh HTS, whose call it bears; OD600 change, %; measured here: OD600 growth;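 optical density of the mix in the first replicate; 0 = DMSO median and -100 = no signal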
rRNA inh HTS RFP – also measured in rRNA inh HTS; calls as there; RFP signal change, %; measured here: RFP humanized mutant strains;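 first replicate; 0 = DMSO median and -100 = no signal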
Starred values were filed as active, the others as inactive.

SMILES	rRNA inh HTS	rRNA inh HTS OD600	rRNA inh HTS RFP
CCCNC(=O)N[C@@H]1CC[C@@H](CC(=O)NC2CCC2)O[C@H]1CO	-1	1	-1.8
CCCC#Cc1ccc([C@H]2[C@H]3CN(C(=O)Nc4cccc(F)c4)CC(=O)N3[C@H]2CO)cc1	-21	-58	24
C[C@H](CO)N1C[C@H](C)[C@@H](CN(C)Cc2ccc(Cl)c(Cl)c2)OCCCC[C@H](C)Oc2ccc(NC(=O)c3ccncc3)cc2C1=O	-2	1	1.8
O=C(C[C@@H]1CC[C@@H]2[C@H](COC[C@H](O)CN2C(=O)C2CCOCC2)O1)NCc1ccncc1	6	12	-1.1
CO[C@H]1CN(C)C(=O)c2ccc(NC(=O)c3ccccc3)cc2OC[C@H](C)N(CC2CC2)C[C@@H]1C	-3	-15	1.8
C[C@@H]1CN([C@@H](C)CO)S(=O)(=O)c2ccc(C#Cc3cccnc3)cc2O[C@H]1CN(C)C(=O)C1CC1	0	-13	-3.9
COC(=O)[C@@]12C[C@@H](CC(=O)NCc3cccc(C(F)(F)F)c3)C(=O)N(CCc3ccc(OC)c(OC)c3)C1=CCC(C)(C)C2	12	9	1.5
COc1ccc(NC(=O)Nc2cccc3c2O[C@@H](CN(C)C(=O)Nc2ccc4c(c2)OCO4)[C@@H](C)CN([C@@H](C)CO)C3=O)cc1	-6	-4	0.9
O=C(C[C@@H]1C=C[C@H](NC(=O)Nc2ccc3c(c2)OCO3)[C@H](CO)O1)NCc1ccc(F)cc1	-5	-5	-2.1
CO[C@@H]1CN(C)C(=O)c2cc(NS(=O)(=O)c3cn(C)cn3)ccc2OC[C@H](C)N(CC2CC2)C[C@H]1C	2	5	-1.3
C/C(CC(=O)Nc1ccc(N(C)C)cc1)=N\NC(=O)c1ccccc1Cl	2	11	-1.0
CCC(=O)N1[C@@H](CO)[C@H](c2ccc(-c3cccc(F)c3)cc2)[C@@H]1CNC(C)=O	-4	3	2.1
COc1ccccc1S(=O)(=O)N(C)C[C@@H]1OCc2ccccc2-c2c(n(C)c3ccccc23)C(=O)N([C@H](C)CO)C[C@H]1C	1	3	-4.0
C[C@@H]1CN([C@@H](C)CO)C(=O)c2cccc(NS(=O)(=O)c3cn(C)cn3)c2O[C@@H]1CN(C)C	-2	-8	1.3
COc1ccccc1CNC(=O)C[C@H]1C[C@@H]2c3cc(NC(=O)C4CCC4)ccc3O[C@@H]2[C@H](CO)O1	0	3	-2.8
C(=C\c1ccccc1)/CN1CCN(C(c2nnnn2C2CCCC2)C2CC2)CC1 (stereo unspecified)	-7	-8	2.9
O=C(C[C@@H]1CC[C@@H]2[C@H](COC[C@H](O)CN2S(=O)(=O)c2ccc(F)cc2)O1)N1CCc2ccccc2C1	-5	-10	2.2
C[C@H]1CCCCO[C@@H](CN(C)S(=O)(=O)c2cn(C)cn2)[C@@H](C)CN([C@@H](C)CO)C(=O)c2cc(NS(=O)(=O)c3ccccc3)ccc2O1	2	0	0.1
C[C@@H]1CN([C@H](C)CO)C(=O)c2cc(C#C[C@@H](C)O)cnc2O[C@@H]1CN(C)C(=O)c1ccccc1F	10	6	-2.5
O=C1C(=Cc2cn(-c3ccccc3)nc2-c2ccc(OCc3ccccc3F)cc2)SC(=S)N1CCS(=O)(=O)O	4	27	12
CCCCN1C(=O)C(CC(=O)NC2CC2)CC(C(=O)N(C(C)C)C(C)C)=C1C (stereo unspecified)	22	7	1.0
CNC[C@@H]1[C@H](c2ccccc2)[C@H](CO)N1C(=O)Nc1cccc(OC)c1	0	-2	1.6
Cc1ccc(S(=O)(=O)Nc2ccc3c(c2)C(=O)N([C@H](C)CO)C[C@@H](C)[C@H](CN(C)C(=O)CCC(F)(F)F)OCCCC[C@@H](C)O3)cc1	2	5	0.9
CN1CCN(C(=O)C[C@@H]2CC[C@@H]3[C@H](COC[C@H](O)CN3C(=O)Nc3ccc(Cl)cc3)O2)CC1	-18*	2.4*	-0.7*
Cc1noc(C)c1NC(=O)N(C)C[C@@H]1Oc2ncc(C#CC(C)(C)O)cc2C(=O)N([C@H](C)CO)C[C@@H]1C	3	5	1.4
CCCCOCCCNC(=O)C[C@@H]1C[C@@]2(C(=O)OC)CCCCC=C2N(CCc2ccc(OC)c(OC)c2)C1=O	-4	-5	6.3
COCC#Cc1cnc2c(c1)C(=O)N([C@H](C)CO)C[C@H](C)[C@@H](CN(C)C(=O)Cc1ccncc1)O2	2	0	-0.7
O=C(NCc1ccccc1)C(C1CC1)n1c(=O)c(-c2cc3ccccc3[nH]2)nc2ccccc21 (stereo unspecified)	9	6	3.7
C[C@@H]1CCCCO[C@@H](CN(C)C(=O)Nc2ccc3c(c2)OCO3)[C@H](C)CN([C@H](C)CO)C(=O)c2cc(NC(=O)CCCN(C)C)ccc2O1	0	4	-3.3
Cc1ccc(S(=O)(=O)N(C)C[C@H]2Oc3ccc(NS(=O)(=O)c4ccc(Cl)cc4)cc3CC(=O)N([C@@H](C)CO)C[C@@H]2C)cc1	-1	1	-1.9
Cc1noc(C)c1NC(=O)N1C[C@@H](O)COC[C@@H]2O[C@H](CC(=O)N3CCc4ccccc4C3)CC[C@H]21	4	11	-0.4
COc1ccc(NC(=O)N(C)C[C@@H]2OCCCC[C@H](C)Oc3ccc(NC(=O)C4CCCCC4)cc3C(=O)N([C@H](C)CO)C[C@@H]2C)cc1	2	-12	1.3
COCC(=O)N1CC(=O)N2[C@H](CO)[C@@H](c3ccc(Br)cc3)[C@H]2C1	3	5	5.7
CCCNC(=O)N[C@H]1CC[C@H](CC(=O)NCCc2ccccc2)O[C@@H]1CO	2	0	-1.7
OC[C@@H]1CN(CCN2CCOCC2)C[C@H](n2cnc3c(NC4CCC4)ncnc32)O1	1	10	-1.3
COc1ccc(NC(=O)Nc2ccc3c(c2)C(=O)N(C)C[C@H](OC)[C@@H](C)CN[C@@H](C)CO3)cc1	0	1	0.9
COc1cccc(CNC(=O)[C@H]2CCCN2C(=O)[C@H]2CCCN2C(=O)c2cccc(OC)c2)c1	13	7	-0.1
O=C(NC[C@@H]1[C@@H](c2ccccc2)[C@@H](CO)N1C(=O)Cc1ccncc1)C1CCC1	-1	-2	-1.2
O=C(N[C@@H](Cc1cccnc1)C(=O)N1CCC[C@H]1C(=O)NCCc1ccccc1Cl)c1cccs1	-17*	-8.0*	5.1*
CC(=O)N1CC(=O)N2[C@H](C1)[C@H](c1ccc(C#Cc3cccnc3)cc1)[C@@H]2CO	-3	7	1.3
C[C@@H]1CN([C@H](C)CO)C(=O)c2cc(NC(=O)Nc3ccc4c(c3)OCO4)ccc2O[C@@H]1CN(C)Cc1ccc(-c2ccccc2)cc1	-7	-4	2.7
Cc1ccccc1-c1cnc2c(c1)C(=O)N([C@@H](C)CO)C[C@H](C)[C@H](CN(C)C(=O)c1ccccc1)O2	1	1	-1.1
C[C@H](CO)N1C[C@H](C)[C@@H](CN(C)C(=O)c2ccncc2)OCCCC[C@H](C)Oc2ccc(NS(=O)(=O)c3ccc(F)cc3)cc2C1=O	0	3	1.4
Cc1ccc(S(=O)(=O)N[C@@H]2CC[C@@H](CCNC(=O)C3CCC3)O[C@H]2CO)cc1	-1	5	1.0
O=C(C[C@@H]1CC[C@@H](NC(=O)NC2CCCCC2)[C@@H](CO)O1)NCc1ccc(F)cc1	0	0	-3.4
O=C(Nc1ccc2c(c1)OCO2)c1ccc2sc([C@@H]3O[C@H](CO)[C@H](O)[C@H](O)[C@H]3O)nc2c1	5	8	-5.2
CN(C)C(=O)c1cccc(-c2ccc3c(c2)[C@H]2[C@H](CCN2Cc2nccs2)[C@@H](CO)N3)c1	1	13	2.9
C[C@@H]1CN([C@@H](C)CO)C(=O)c2cc(-c3ccccc3)cnc2O[C@@H]1CN(C)C(=O)Nc1ccccc1F	-1	0	0.3
C[C@@H]1CN([C@H](C)CO)C(=O)c2cc(-c3ccc(F)cc3)cnc2O[C@H]1CN(C)S(C)(=O)=O	1	22	0.0
C[C@@H]1CN([C@H](C)CO)C(=O)c2cccc(NS(C)(=O)=O)c2O[C@H]1CN(C)Cc1ccc(Oc2ccccc2)cc1	-1	2	-1.3
C[C@H](O)C#Cc1cnc2c(c1)C(=O)N([C@H](C)CO)C[C@H](C)[C@H](CN(C)C(=O)c1ccncc1)O2	4	4	-2.7
COCC(=O)N(C)C[C@H]1Oc2ncc(C#Cc3ccccc3)cc2C(=O)N([C@@H](C)CO)C[C@H]1C	2	1	-1.8
C[C@@H]1Cn2cnc(C(=O)N(C)Cc3ccccc3)c2C(=O)N1	15	6	1.3
C[C@H](CO)N1C[C@H](C)[C@H](CN(C)C)Oc2cc(-c3cncnc3)ccc2S1(=O)=O	6	13	-1.9
CCCC#Cc1cnc2c(c1)C(=O)N([C@H](C)CO)C[C@H](C)[C@@H](CN(C)C(=O)c1ccc3c(c1)OCO3)O2	-1	2	-3.3
COCCc1ccc(OC2(C)CCN(Cc3ccc(OC)c4ccccc34)C2)cc1 (stereo unspecified)	-21	-40	8.5
O=C(NCC[C@H]1CC[C@H](NC(=O)C2CC2)[C@H](CO)O1)c1ccc(F)cc1	1	4	-1.0
C[C@H]1CN([C@@H](C)CO)C(=O)c2cc(NC(=O)Cc3ccccc3)ccc2O[C@@H]1CN(C)Cc1ccc(-c2ccccc2)cc1	-7	-7	5.8
O=C(c1ccccc1)N1CC(=O)N2[C@H](C1)[C@@H](c1ccc(/C=C/c3ccccc3)cc1)[C@@H]2CO	-21	-58	19
C[C@@H]1CN([C@@H](C)CO)C(=O)c2cccc(NS(=O)(=O)c3cn(C)cn3)c2O[C@H]1CN(C)S(=O)(=O)c1cccs1	3	-4	0.3
(continued)
SMILES	rRNA inh HTS	rRNA inh HTS OD600	rRNA inh HTS RFP
COc1ccc(CN(C)C[C@@H]2Oc3ccc(NC(=O)C4CC4)cc3C(=O)N([C@@H](C)CO)C[C@H]2C)cc1	5	6	-2.5
C[C@H](CO)N1C[C@H](C)[C@@H](CN(C)C(=O)c2ccccc2F)Oc2ncc(-c3cccnc3)cc2C1=O	1	-7	7.3
CC(C)NC(=O)N(C)C[C@@H]1Oc2c(NS(=O)(=O)c3cccs3)cccc2C(=O)N([C@H](C)CO)C[C@H]1C	2	2	-0.3
C[C@H]1CN([C@@H](C)CO)C(=O)c2cccc(NC(=O)CCCCCC(=O)Nc3ccccc3N)c2O[C@@H]1CN(C)Cc1ccccc1	-14	-15	4.1
C[C@H](CO)N1C[C@H](C)[C@H](CN(C)Cc2ccccn2)Oc2ncc(C#CC3(O)CCCC3)cc2C1=O	0	0	-2.5
Cc1cccc(-c2ccc([C@H]3[C@@H](CO)N4C(=O)CN(C(=O)c5ccccc5)C[C@@H]34)cc2)c1	-4	-15	-0.4
C[C@@H]1CN([C@H](C)CO)C(=O)c2cc(/C=C/c3ccccc3)cnc2O[C@@H]1CN(C)C(=O)C1CCOCC1	2	-4	2.6
CO[C@H]1CN(C)C(=O)c2ccc(NC(C)=O)cc2OC[C@H](C)N(S(C)(=O)=O)C[C@@H]1C	2	-1	-0.9
CC1(c2nnnn2Cc2ccccc2)CCC(=O)N1CC1CCCCC1 (stereo unspecified)	-26	-21	0.2
COCC(=O)N1C[C@@H](C)[C@@H](OC)CN(C)C(=O)c2ccc(NC(=O)c3ccc(OC)cc3)cc2OC[C@@H]1C	0	1	-0.1
COc1ccc(NC(=O)N(C)C[C@H]2Oc3ccc(NS(=O)(=O)c4ccc(Cl)cc4)cc3CC(=O)N([C@@H](C)CO)C[C@H]2C)cc1	-2	-5	-2.4
COCC(=O)N1[C@@H](C#N)[C@H](c2ccccc2-c2ccccc2F)[C@@H]1CO	3	3	0.0
C[C@@H]1CCCCO[C@@H](CN(C)C(=O)CCC(F)(F)F)[C@@H](C)CN([C@H](C)CO)C(=O)c2cc(NC(=O)Nc3ccc(F)cc3)ccc2O1	4	-1	0.0
COc1ccc(NC(=O)Nc2cccc3c2O[C@H](CN(C)Cc2ccc4c(c2)OCO4)[C@H](C)CN([C@H](C)CO)C3=O)cc1	1	2	-1.2

Reformatted as a markdown table: entries from further up.
| Molecule | rRNA inh HTS | rRNA inh HTS OD600 | rRNA inh HTS RFP |
| --- | --- | --- | --- |
| C[C@H](CO)N1C[C@H](C)[C@@H](CN(C)C(=O)c2ccccc2F)Oc2ncc(-c3cccnc3)cc2C1=O | 1 | -7 | 7.3 |
| CC(C)NC(=O)N(C)C[C@@H]1Oc2c(NS(=O)(=O)c3cccs3)cccc2C(=O)N([C@H](C)CO)C[C@H]1C | 2 | 2 | -0.3 |
| C[C@H]1CN([C@@H](C)CO)C(=O)c2cccc(NC(=O)CCCCCC(=O)Nc3ccccc3N)c2O[C@@H]1CN(C)Cc1ccccc1 | -14 | -15 | 4.1 |
| C[C@H](CO)N1C[C@H](C)[C@H](CN(C)Cc2ccccn2)Oc2ncc(C#CC3(O)CCCC3)cc2C1=O | 0 | 0 | -2.5 |
| Cc1cccc(-c2ccc([C@H]3[C@@H](CO)N4C(=O)CN(C(=O)c5ccccc5)C[C@@H]34)cc2)c1 | -4 | -15 | -0.4 |
| C[C@@H]1CN([C@H](C)CO)C(=O)c2cc(/C=C/c3ccccc3)cnc2O[C@@H]1CN(C)C(=O)C1CCOCC1 | 2 | -4 | 2.6 |
| CO[C@H]1CN(C)C(=O)c2ccc(NC(C)=O)cc2OC[C@H](C)N(S(C)(=O)=O)C[C@@H]1C | 2 | -1 | -0.9 |
| CC1(c2nnnn2Cc2ccccc2)CCC(=O)N1CC1CCCCC1 (stereo unspecified) | -26 | -21 | 0.2 |
| COCC(=O)N1C[C@@H](C)[C@@H](OC)CN(C)C(=O)c2ccc(NC(=O)c3ccc(OC)cc3)cc2OC[C@@H]1C | 0 | 1 | -0.1 |

Bioassay records deposited in PubChem BioAssay by Broad Institute.

A portion of the library (hit frequency here may not be typical).
